Bioassay records (PubChem BioAssay)
AID504770: growth inhibition of E. coli YBA685, primary screen, V. cholerae RctB inhibitors; z-score (no concentration beside the values); AID 504770, 2011; hit rate 0.27% among 130,000; E. coli YBA685 rctB-dependent plasmid, OD600 growth, 3 h; hits give low values;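 active = z-score under -2 on both plates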;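 also: wells of about 30 µL received 100 nL stock; score is relative to mean and SD of the test wells; the first replicate is given; strong numbers were not always called active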
Ba CapD inh: Bacillus anthracis CapD inhibitors, primary screen, biochemical, fluorescence intensity; purified CapD enzyme, fluorescence intensity read-out; hits give low values; some hits fall short of the stated cut; z-score (concentration not given with the values); hit rate 0.23% among 140,000; AID 492967, 2010;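 active = z-score under -4 in either of two replicates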;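 also: stock transfer was 100 nL into about 40 µL; score is relative to mean and spread of the plate; one replicate is shown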
Active calls of the source: *; . = no result given; & = joins results of further samples.

SMILES	AID504770	Ba CapD inh
COc1ccc(N2CC(=O)N(/N=C/c3ccccc3C(=O)O)C2=S)cc1	-0.7	-0.48
CN1/C(=C\C(=O)NC2CCCCC2)C(C)(C)c2ccccc21	-0.35	-0.23
N/C(=N\OCC(=O)N1CCOCC1)c1nonc1N	-0.45	0.16
Cc1cc(C)c2c(-n3cccc3)nn(CCCC(=O)NC3CCCCCC3)c2n1	-0.45	15
COc1ccc(-c2noc(N3CCCC(C(=O)NCCCN4CCC(C)CC4)C3)n2)cc1 (stereo not drawn)	-0.15	0.96
CCOC(=O)C(C)Sc1nc(N)nc(SC)c1C#N (stereo not drawn)	-0.15	-0.27
CN(C)S(=O)(=O)Oc1ccccc1C(=O)Nc1cccc(Cl)c1	.	0.23
C[N+](C)(C)CC1CCCC1O (stereo not drawn)	-0.45	0.41
CC(=O)Nc1ccc(-c2nc3cc(Cl)ccc3o2)cc1	-0.45	.
Cc1cc(C)cc(N2C(=O)/C(=C/C=C\c3ccccc3)S(=O)(=O)C2c2cccc([N+](=O)[O-])c2)c1 (stereo not drawn)	.	-0.53
Cc1cc(C)c2ccc(O)cc2n1	-0.5	.
CCc1cc(C(=O)c2ccc(OC)cc2)c(NC(=O)CN2CCN(C)CC2)s1	-0.45	0.17
CN(C)C(=O)CSc1nc2scc(-c3ccccc3)c2c(=O)[nH]1	-0.4	.
COC(=O)C1=C(C)NC2=C(C(=O)CCC2)C1c1c(F)cccc1F (stereo not drawn)	-0.1	10
Cc1nn(-c2ccccc2)c(N2CCCCC2)c1/C=N/NC(=O)c1ccncc1	-0.4	.
O=C(CSc1nc2ccccc2c(=O)n1C1CC1)NCc1ccccc1	-0.05	0.52
CC1CCCN(CC(O)COCc2ccc3c(c2)OCO3)C1 (stereo not drawn)	0.8	-0.33
CCCCN(C)C(=O)c1cc2c(s1)-c1ccccc1S(=O)(=O)C2	-0.55	-0.84
N#Cc1ccc(CSc2nnc(CNc3ccccc3)o2)cc1	-0.15	.
COc1ccc(C(=O)CSc2nnc(CCC(=O)O)c(=O)[nH]2)cc1OC	-0.35	.

A few values from above:
Reading for CC1CCCN(CC(O)COCc2ccc3c(c2)OCO3)C1 (stereo not drawn) under Ba CapD inh: -0.33
Reading for Cc1nn(-c2ccccc2)c(N2CCCCC2)c1/C=N/NC(=O)c1ccncc1 under AID504770: -0.4
Reading for COc1ccc(N2CC(=O)N(/N=C/c3ccccc3C(=O)O)C2=S)cc1 under AID504770: -0.7
Reading for CN(C)S(=O)(=O)Oc1ccccc1C(=O)Nc1cccc(Cl)c1 under Ba CapD inh: 0.23
Reading for COC(=O)C1=C(C)NC2=C(C(=O)CCC2)C1c1c(F)cccc1F (stereo not drawn) under AID504770: -0.1

The listing picks up, repeating the five entries before the break.
SMILES	AID504770	Ba CapD inh
O=C(CSc1nc2ccccc2c(=O)n1C1CC1)NCc1ccccc1	-0.05	0.52
CC1CCCN(CC(O)COCc2ccc3c(c2)OCO3)C1 (stereo not drawn)	0.8	-0.33
CCCCN(C)C(=O)c1cc2c(s1)-c1ccccc1S(=O)(=O)C2	-0.55	-0.84
N#Cc1ccc(CSc2nnc(CNc3ccccc3)o2)cc1	-0.15	.
COc1ccc(C(=O)CSc2nnc(CCC(=O)O)c(=O)[nH]2)cc1OC	-0.35	.
O=C(c1ccc(CSc2ncn[nH]2)cc1)N1CCN(S(=O)(=O)c2ccc3c(c2)CCC3)CC1	-2	.
CCn1cc(C(=O)O)c(=O)c2cc(F)c(N3CCN(C(=O)c4ccc(F)cc4)CC3)cc21	-3.7*	-0.58
O=C1C2C3C=CC(C3)C2C(=O)N1CNc1ccc(O)cc1 (stereo not drawn)	-0.25	-0.3
O=c1oc(COc2ccc(Cl)cc2Cl)nc2ccccc12	1.4	0.67
CCCCCOc1ccc(/C=C2\c3cc([N+](=O)[O-])ccc3-c3c2cc([N+](=O)[O-])cc3[N+](=O)[O-])cc1	.	-0.16
Cc1cc(S(=O)(=O)/N=C(\N)c2ccc(C(N)=O)cc2)cc(C)c1F	0.25	0.81
Cc1ccc(OCC(=O)NC2CCS(=O)(=O)C2)cc1 (stereo not drawn)	-0.25	0.59
Cc1cc2nc(C(F)(F)F)cc(C)n2n1	-0.85	-0.07
O=[N+]([O-])c1ccc(N2CCCC2)c2nonc12	.	-0.015
O=C(O)C1C2C=CC(O2)C1C(=O)N1CCN(c2ccccc2)CC1 (stereo not drawn)	2	-1.7
Cc1ccccc1Nc1nc(CCl)cs1	-0.35	0.27
N#Cc1c(N2CCOCC2)nc2c3c(nc4c(c13)CC(=O)N4c1cccc(Cl)c1)NC1(CCCCC1)N2	-0.3	.
CC1(C)CC(N2CCCCC2)=CC(=S)S1	.	-1.6
COc1ccc(OCc2nnc(SCC(=O)O)n2N)cc1	-0.65	.
Cc1nn(CC(=O)Nc2ccc3c(c2)oc2ccccc23)c(=O)c2ccccc12	0.35	.
Cc1cc(C(C)(C)CC(C)(C)C)ccc1OCCOCC[N+](C)(C)Cc1ccccc1	0.25	1.1&-0.015
Cc1cc(N2CCCCC2)nc2ccc(NC(=O)CCC(=O)N3CCC(C)CC3)cc12	-0.5	32
O=C(Nc1ccc(Cl)cc1)n1nc(C(F)(F)F)c2cnccc21	-0.8	3.5
Cn1c(=O)c2c(nc(SCC(=O)NC3CCCCC3)n2C)n(C)c1=O	-0.9	0.41
COC(=O)C1=CN(Cc2ccc(F)cc2)C=C(C(=O)OC)C1c1cccc(OCc2ccccc2)c1	.	58
CCOC(=O)c1[nH]c(CSc2nnc(-c3ccco3)n2-c2ccccc2)c(C(=O)OCC)c1C	0.45	.
CCC(=O)NC(C)c1nc2ccccc2n1Cc1ccccc1F (stereo not drawn)	0	0.24
COc1ccc(OC)c(C2(O)CSC(=Nc3cccnc3)N2C2CC2)c1 (stereo not drawn)	-0.05	.
c1csc(CN2CCN(Cc3cccs3)C2c2cccs2)c1	0	0.33
O=C(O)c1cccc([N+](=O)[O-])c1C(=O)Nc1ccc(F)cc1	.	-0.065
CCCNC(=O)C1CCCN(c2nc3c(C)cc(C)cc3s2)C1 (stereo not drawn)	-1.2	-0.26
O=C(Nc1cccc(C(F)(F)F)c1)c1cc(-c2ccccc2)on1	-0.35	-0.24
COC(=O)Cc1nc(-c2ccccc2)sc1C	.	4.5
Cc1c(CN2CCOCC2)c(=O)n(-c2ccccc2)n1C	-0.2	.
COC(=O)CNS(=O)(=O)c1ccc(I)cc1	-0.7	0.025
COc1ccc2ccccc2c1CN1CCN(C(=O)OCc2cccc(Br)c2)CC1	.	0.22
O=C(Cc1nc2ccccc2n1C(=O)c1ccccc1)N1CCOCC1	0.35	0.34
N#CC(C(=O)c1cccc(N2C(=O)CCC2=O)c1)c1ccccn1 (stereo not drawn)	0.35	.
O=C(c1ccccc1)C1Oc2ccccc2OC1O (stereo not drawn)	-0.15	-0.35
CCS(=O)(=O)c1ccc2oc(SCC(=O)NCc3ccccc3)nc2c1	-0.05	.
CCOC(=O)C1=C(O)/C(=C/c2ccc(OC)c(OC)c2)SC1=Nc1ccccc1	.	-0.23
COc1ccccc1N=C(NC#N)SC	-0.65	-0.39
Nc1ccc(Sc2ccccc2)nc1Sc1ccccc1	0.25	84
Cc1cccc(C)c1-n1nnnc1S(=O)(=O)Cc1ccccc1Cl	0.6	-0.16
COc1cc(NC(=O)c2cc(=O)n3c(nc4ccccc43)s2)cc(OC)c1	-0.35	-0.69
O=C(Nc1nn2cnnc2s1)C12CC3CC(CC(O)(C3)C1)C2	0.1	.
CCn1c(C(=O)O)c(CC(=O)N2CCN(c3cccc(Cl)c3)CC2)c2ccccc21	.	0.91
Nc1nc(COc2ccc(F)cc2Cl)nc(N2CCOCC2)n1	.	-0.14
CCOC(=O)C[N+](CC)(CC)CCOc1ccc2c(c1)C(=O)c1cc(OCC[N+](CC)(CC)CC(=O)OCC)ccc1-2	.	-0.06
Clc1ccc(CSc2nc3ccccc3[nH]2)cc1	.	-0.23
CCc1cccc2c(C#N)cn(CC(=O)NC3CCCC3)c12	-0.4	1.8
Cc1ccccc1NC(=O)Nc1nnc(N2CCCC2)s1	0.75	-0.36
O=C(Nc1ccccc1C(F)(F)F)c1cc(Cl)cc(Cl)c1	.	-0.69
O=C(O)c1n[nH]nc1-c1ccccc1	-0.25	.
Cc1ccc(C2CC(C(F)(F)F)n3ncc(C(=O)Nc4ccc(Cl)cc4)c3N2)cc1 (stereo not drawn)	.	-0.14
O=C(NCC1COc2ccccc2O1)c1ccc(NC(=O)c2ccc(Br)o2)cc1 (stereo not drawn)	0.8	0.43
CC(C)(CO)N=Cc1cc(Cl)cc(Cl)c1O	.	-2.3
O=C(CCC(=O)c1cccs1)NCc1ccc(Cl)cc1	-0.25	-1.1
Cc1ncc(CN2CCOCC2)c(N)n1	0.4	0.29
CC1CN(C(=O)CSc2ncc(C(F)(F)F)cc2Cl)CC(C)O1 (stereo not drawn)	1	.
COc1cccc(C2C(=O)c3ccccc3C2=O)c1	-0.2	1.5
CCN1CCCC1CNC(=O)Cn1ncc2c3ccccc3n(Cc3cc(C)ccc3C)c2c1=O (stereo not drawn)	0	6.6
O=S(=O)(NCc1ccccc1Cl)c1cccc2nonc12	.	-0.53
O=C(c1ccccc1)c1ccc(OCC(O)CN2C(=O)c3ccccc3C2=O)cc1 (stereo not drawn)	-0.05	-0.2
CC12c3ccccc3C(c3ccccc31)C1C(=O)N(Cc3ccc(F)cc3)C(=O)C12 (stereo not drawn)	.	-0.33

(further entries)
SMILES	AID504770	Ba CapD inh
O=C(Nc1ccc2c(c1)oc1ccccc12)c1cccs1	1.2	.
CC(C)CN1CCOC(CNC(=O)Nc2ccc(Cl)c(Cl)c2)C1 (stereo not drawn)	-1.2	.
CCN(CC)c1ccc(O)c(/C=N/N2C(=O)/C(=C/c3ccco3)N=C2c2ccccc2)c1	0.5	-1.1
O=C(c1cccs1)N1CCC(c2ccccc2)C1 (stereo not drawn)	0.45	-0.07
COc1ccc(CC(=O)NN2C(=O)CSCC2=O)cc1OC	1.1	0.15
O=C(c1ccccc1)N1CCN(C(=O)c2nn3c(C(F)(F)F)cc(-c4cccs4)nc3c2Br)CC1	.	-0.69
COc1ccc(C(=O)NCCc2cccs2)cc1	-0.5	-0.9
COC(=O)c1ccc(NC(=O)CNC(=O)C2CCCCC2)c(C)c1	-0.05	.
COc1ccc(C2=CSC3=C(C(=O)c4cc(OC)c(OC)c(OC)c4)CCN23)cc1	0.6	.
O=C1/C(=C/c2cccs2)Cc2ccccc21	.	-1.3
O=S(=O)(Nc1cccc(Oc2ccc(Cl)cc2)n1)c1ccc(F)cc1	-0.55	-0.51
CC(Sc1nc2sccc2c(=O)n1C)C(=O)Nc1ccc2c(c1)OCO2 (stereo not drawn)	-0.75	.
Cc1cc(CNC(C)c2ccncc2)c(C)n1-c1ccnn1C(C)C (stereo not drawn)	0.75	.
O=C(Nc1ccc2[nH]c3c(c2c1)CCCC3)c1cccs1	0.7	-0.2
Cc1nn(-c2ccccc2)nc1-c1nnc(-c2ccc(C(F)(F)F)cc2)o1	1	-1.5
C[N+](C)(C)CCCCCC[N+](C)(C)C	-0.15	6.6&0.08
CCOC(=O)Cc1nc2nc(C)c([N+](=O)[O-])c(=O)n2[nH]1	.	-1.1
Cn1c(SCC(=O)NN)nnc1-c1ccccc1	-0.35	0.38
O=C(O)C1C2C=CC(O2)C1C(=O)Nc1ccccc1 (stereo not drawn)	-1	.
O=C(Nc1cc(F)cc(F)c1)Nc1nc(-c2ccc(Cl)c(Cl)c2)cn1/N=C/c1ccccc1	.	-0.18

Reprinted at random: three entries already listed, in no set order.
SMILES	AID504770	Ba CapD inh
Cc1nn(-c2ccccc2)nc1-c1nnc(-c2ccc(C(F)(F)F)cc2)o1	1	-1.5
Cn1c(SCC(=O)NN)nnc1-c1ccccc1	-0.35	0.38
CCN(CC)c1ccc(O)c(/C=N/N2C(=O)/C(=C/c3ccco3)N=C2c2ccccc2)c1	0.5	-1.1

(more compounds)
SMILES	AID504770	Ba CapD inh
CCOc1ccc(C(=O)c2sc3nc(N)c(C#N)c(CC)c3c2N)cc1	.	-1.2
CC1(C)CC(=O)C2=C(C1)Nc1[nH]c(=S)[nH]c(=O)c1C2c1cccs1 (stereo not drawn)	1	-0.11
O=C(N/N=C/c1csc([N+](=O)[O-])c1)c1cc(Cl)ccc1Cl	.	-0.3
O=C(NC1CCCCC1)c1cc(-c2ccccn2)nc2ccccc12	0.4	0.42
O=C(CSc1nnc(COc2ccccc2)o1)N1CCCC1	-0.5	.
NCCCN1CCCc2ccccc21	-0.35	.
COc1ccc(/C=C/C(=O)N2c3ccccc3CC2C)cc1OC (stereo not drawn)	0.8	-2
CCCn1c(N2CCN(C(=O)N3CCCCC3)CC2)nc2ccccc21	0.65	.
CC1CCN(S(=O)(=O)c2ccc(NC(=O)/C=C/c3ccccc3)cc2)CC1	0.5	-0.29
Cc1cc(C(=O)OC2CCOC2=O)c2ccccc2n1 (stereo not drawn)	-0.05	.
Cc1ccsc1CNS(=O)(=O)c1ccc2c(c1)CCO2	2.5	-0.3
CCOC(=O)c1cc2c(ccn2C)n1CC(=O)N(c1ccccc1)c1ccccc1	-1.1	.
O=C(CSc1nnc(-c2cc3ccccc3[nH]2)n1-c1ccccc1)N1CCNC1=O	-0.35	.
CCCc1cc(=O)[nH]c(SCCOC(=O)c2ccccc2)n1	-0.65	.
CC(C(O)c1ccccc1)N(C)S(=O)(=O)c1ccc(Cl)cc1 (stereo not drawn)	0.2	0.19
O=C(N/N=C/c1ccnc2ccccc12)c1cc2ccccc2s1	.	7.6
N#Cc1c(Cl)cccc1Oc1ccc(S(=O)(=O)NC2CCN(Cc3ccccc3)C2)cc1 (stereo not drawn)	.	-0.96
CCCCCC(=O)Nc1ccc2oc(-c3cccnc3)nc2c1	1.2	28
COc1cc([N+](=O)[O-])ccc1NC(=O)c1cc(-c2ccccc2)nc2ccccc12	.	-0.29
